# Source: PubChem (ICCB-Longwood Screening Facility, Harvard Medical School)
# AID504770 = growth inhibition of E. coli YBA685, primary screen, V. cholerae RctB inhibitors; E. coli YBA685 rctB-dependent plasmid, OD600 growth, 3 h; active compounds read low; z-score (test concentration not listed); hit rate 0.27% among 130,000; AID 504770, 2011;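 active means z-score under -2 on both plates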;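 further: wells of about 30 µL received 100 nL stock; score is relative to mean and SD of the test wells; the first replicate is given; strong numbers were not always called active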
# CapD inh = Bacillus anthracis CapD inhibitors, primary screen, biochemical, fluorescence intensity | AID 492967, 2010 | z-score (test concentration not listed) | hit rate 0.23% among 140,000 | purified CapD enzyme, fluorescence intensity read-out; active compounds read low; some hits fall short of the stated cut;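 active means z-score under -4 in either of two replicates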;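 further: stock transfer was 100 nL into about 40 µL; score is relative to mean and spread of the plate; one replicate is shown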
# Starred values were filed as active, the others as inactive; . = no result given.
# Value order: AID504770 | CapD inh
> Cc1ccc(OCCc2nc3ccccc3[nH]2)cc1
    -0.85 | -0.72
> COc1cccc(C(=O)N2CC(C)OC(C)C2)c1 (configuration not stated)
    -1.1 | .
> CCCN1CCC(N(C(=O)c2cccc(NC(=O)c3ccc(Cl)cc3Cl)c2)C2CC2)CC1
    . | -0.275
> O=C(CNC1CCCCC1)c1ccc(O)c(O)c1
    -0.45 | -0.775
> Cc1ccc2cc3c(nc2c1)-c1ccccc1C3=NC1CCCCC1
    -0.95 | -0.11
> COc1ccc(N2C(=O)/C(=C/c3cc(Cl)c(OCC(=O)O)c(Cl)c3)C(=O)NC2=S)cc1
    . | -1.18
> Cc1ccc(-n2nc(C(=O)Nc3cccnc3)c3c4ccccc4n(C)c3c2=O)cc1
    0.35 | 0.64
> CCCN(C(=O)/C=C/c1ccc(S(=O)(=O)N(CC)CC)cc1)C1CCS(=O)(=O)C1 (configuration not stated)
    0.45 | .
> C/C(=N\OCc1nc2c3c(-c4ccccc4)c(-c4ccccc4)oc3ncn2n1)c1cccs1
    . | 25.2
> O=C(NCc1ccco1)c1cccc(NC(=O)c2ccc(Br)cc2)c1
    -0.55 | 0.185
> O=c1[nH]c(CSc2nnc3n2CCCCC3)nc2scc(-c3ccccc3Cl)c12
    0.1 | .
> CCN1CCN(c2ncnc3sc(C(=O)Nc4cnc5ccccc5c4)c(C)c23)CC1
    . | -0.85
> CCOc1ccccc1NC(=O)c1c(NC(=O)c2cccc(C)c2)sc2c1CCCCC2
    . | -0.47
> COc1ccc(/C=N/N=C(N)N)cc1OC
    -0.4 | 0.47
> O=C(O)CCCC(=O)N1CCN(C2c3ccccc3-c3ccccc32)CC1
    1.1 | -0.185
> N#Cc1ccc(-c2ccc(F)cc2)n(Cc2c(Cl)cccc2Cl)c1=O
    . | 0.065
> CN(C(=O)COn1nnc2ccc(S(=O)(=O)N3CCOCC3)cc21)c1ccccc1
    0.05 | .
> CCCOc1ccc(/C(=N\O)C(C)(C)NO)cc1
    -0.2 | 0.635
> Cc1cccc2c1N(C(=S)Nc1ccccc1Cl)CCC2
    . | 0.095
> CCOC(=O)c1cnn(C(=O)OCC)c1N
    2.6 | .
> CC1CCCC(NC(=O)COc2ncnc3ccccc23)C1C (configuration not stated)
    -0.75 | -0.45
> CCOC(=O)C1CCCN1S(=O)(=O)c1cccc2nsnc12 (configuration not stated)
    -0.2 | .
> CCc1ccc(NC(=O)c2ccccc2Br)cc1
    -1.35 | 0.015
> COc1ccc(OC)c(N2CC(O)(c3ccc(OC(F)F)cc3)[N+]3=C2SCCC3)c1 (configuration not stated)
    . | 0.12
> CN(c1ccccc1C(=O)N1CCN(c2ccccc2F)CC1)S(=O)(=O)c1ccccc1
    -0.7 | 0.24
> CN1CCSc2ccc(C(=O)NCCCN3CCCCCC3)cc21
    -0.3 | 103
> O=C(CCc1nc(-c2ccc(Cl)cc2)no1)NNS(=O)(=O)c1cc(Cl)c(Cl)cc1Cl
    . | -0.33
> CSc1scc(-c2ccc(Cl)cc2)c1C#N
    . | -0.325
> O=C(CCN1CCOCC1)N1N=C(c2ccccc2)CC1c1ccco1 (configuration not stated)
    -0.1 | .
> Cn1ccc(NC(=O)NC(=O)c2c(F)cccc2F)n1
    -0.25 | 0.165
> CC(C)(C)c1cc(Cl)c(O)c(CN2CCCCC2)c1
    . | -0.085
> CCOC(=O)C(O)(c1ccc(NC)cc1)C(F)(F)F (configuration not stated)
    . | -0.105
> O=[N+]([O-])c1ccc(-c2nc(NCC3CCCO3)c3ccccc3n2)cc1 (configuration not stated)
    . | 0.07
> CCN(CC)CCn1c(=S)[nH]c2cc(C(=O)N3CCCC3)ccc2c1=O
    0.35 | 0.38
> CC1(C)CC(=O)C2=C(C1)OC1=C(C(=O)CC(C)(C)C1)C2c1ccc(OCC(N)=O)cc1
    . | -0.145
> Cc1ccc(C(=O)OCC(=O)NC2CC2)s1
    1.1 | -0.335
> Cc1cn([C@@H]2O[C@H](CO)[C@H](O)C2O)c(=O)[nH]c1=O (some centres not stated)
    . | -0.275
> COc1ccc2nc(C)cc(N3CCC(C(N)=O)CC3)c2c1
    -1.2 | .
> CN1C(=O)CC(P(=O)(c2ccccc2)c2ccccc2)N(C)C1=O (configuration not stated)
    -0.4 | 0.26
> O=C(Cc1ccccc1)N/N=C/c1ccc(N2CCOCC2)cc1
    0 | .
> N#Cc1ccccc1OCC(=O)NCCc1ccccc1
    -0.05 | 0.175
> CCOC(=O)c1ccc(OCc2ccc([N+](=O)[O-])cc2)cc1
    . | 0.435
> CCOC(=O)c1sc(NC(=O)c2c(C)nn(Cc3ccccc3)c2C)cc1C
    -0.85 | .
> O=C(CCC1CCCC1)Nc1ccc2nc3n(c(=O)c2c1)CCCCC3
    -0.8 | 2.21
> O=C(N/N=C/c1cc2ccccc2c2ccccc12)c1ccc2ccccc2c1
    . | 0.675
> CCCCN(C)Cc1c(O)ccc2c(-c3ccccc3)cc(=O)oc12
    -1.7 | 0.87
> COc1ccc(C2=NCC(C)(C)CO2)cc1OC
    1.5 | 0.05
> COCCCNC(=O)CSc1nc2ccccc2c(=O)n1CC1CCC(C(=O)NCc2ccccc2Cl)CC1 (configuration not stated)
    . | -1.04
> CC(C)CN1CCNCC1
    0.05 | .
> CN(C)S(=O)(=O)Oc1ccc(C(=O)Nc2ccc(Cl)cc2)cc1
    . | -0.035
> COc1ccc(/C(C#N)=C\c2ccc(-c3ccccc3Br)o2)cc1OC
    -0.05 | -0.455
> CCOc1ccc(NC(=O)c2sc3nc[nH]c(=O)c3c2C)cc1
    -0.4 | 2.38
> COC(=O)C#CCN1C(=O)c2ccccc2C1=O
    -1.15 | 0.135
> O=C(Nc1sc2c(c1C(=O)Nc1ccccc1)CCCCC2)c1ccccc1Br
    . | 2.38
> CN(C)c1ccc(/C=C2\Sc3c(ccc4ccccc34)C2=O)cc1
    . | -0.055
> Cc1ccccc1NC(=O)COC(=O)CCc1ccccc1
    -0.55 | -0.12
> C=CCN(c1ccccc1)S(=O)(=O)c1ccc2[nH]cc(C(=O)NCc3ccccc3Cl)c(=O)c2c1
    . | -0.565
> CCCN1C(=O)C(CC(C)=O)(OC(C)=O)c2ccccc21 (configuration not stated)
    . | 0.005
> Fc1ccccc1N1CCN(Cc2nc(-c3ccc(Cl)cc3Cl)no2)CC1
    -0.25 | -0.98
> Cc1cccc(Oc2ncccc2N)c1C
    . | 0.875

# Going on with the list:
# Value order: AID504770 | CapD inh
> CCn1ncc(C2=NOC(C(=O)Nc3c(C)nn(Cc4ccc(F)cc4)c3C)C2)c1C (configuration not stated)
    1.6 | -0.285
> N#Cc1cn(C2CCN(Cc3ccccc3)CC2)c(=O)[nH]c1=O
    -0.15 | 0.845
> CCNS(=O)(=O)c1ccc(S(=O)(=O)N(Cc2ccccn2)C2CCCCC2)cc1
    -0.6 | .
> Nc1cc(=O)[nH]c(=O)n1Cc1ccccc1
    -1.35 | -0.9
> COc1cc(C(=O)NN2C(=O)C3C4C=CC(CC4)C3C2=O)nc2ccccc12 (configuration not stated)
    . | 2.49
> OCCNc1cc(-n2nc(-c3ccccc3)cc2-c2ccccc2)ncn1
    0.25 | 0.32
> COC(=O)c1c(NC(=O)CCN2C(=O)c3cccc([N+](=O)[O-])c3C2=O)sc2c1CCC(C)C2 (configuration not stated)
    . | 0.465
> O=c1oc(-c2ccccc2)nc2c1oc1ccc(Cl)cc12
    0.8 | 0.045
> Cc1ccccc1-c1nnc(SCC(=O)NC(=O)Nc2ccccc2F)n1C
    0.3 | .
> Cc1nc(-c2noc(C)n2)no1
    . | 0.09
> O=C1C=CC(=O)N1c1ccc(-n2ccc(C(F)(F)F)n2)cc1
    -0.25 | -0.685
> COc1ccc(N/C(C)=C/C(=O)c2ccccc2)cc1
    1.3 | -1.09
> CC(=O)c1ccc2nc(-c3ccccc3)c(-c3ccccc3)nc2c1
    . | 3.09
> N#Cc1ccc(NC(=O)COC(=O)c2ccc(F)cc2)cc1
    -1.1 | -1.04
> CNC(=O)Sc1ccccc1Cl
    -1.95 | -3.42
> O=C(CCc1ccc(S(=O)(=O)NCc2ccccc2)cc1)N1CCCC1
    -1.1 | 0.32
> Cc1ccc(C(C)C)c(OCC(=O)Nn2c(=O)[nH]c3ccccc3c2=O)c1
    -0.3 | -0.43
> CC(C)CNC(=O)c1ccccc1S(=O)(=O)N1CCCCC1
    -0.95 | .
> O=C1CCCN1c1ccc(OC(F)(F)F)cc1
    0.2 | -0.185
> CCOC(=O)C1CCCN(C(=O)c2sc3ncnc(N4CCN(c5ccccc5F)CC4)c3c2C)C1 (configuration not stated)
    . | -0.19
> O=C(CS(=O)(=O)c1cccc2nsnc12)N1CC(=O)N(CCc2ccccc2)C(=O)C1
    -1.9 | 0.27
> Cc1ccc(CN2CCN(CCOC(=O)N3CCN(c4cc(C(F)(F)F)nc5cc(C(C)(C)C)nn45)CC3)CC2)s1
    . | 38.1
> CC1=C(C(=O)OC2CCCCCC2)C2(O)C(=O)c3ccccc3C2(O)N1 (configuration not stated)
    . | -0.635
> O=C(CSc1nc2sc3c(c2c(=O)n1Cc1ccco1)CCC3)Nc1nccs1
    -0.85 | 0.18
> O=C(CC1OC(=O)c2ccccc21)c1ccc(Cl)cc1 (configuration not stated)
    0.85 | -0.435
> CCCN1CCC(N(C(=O)c2ccc(NC(=O)c3ccc(Cl)cc3Cl)cc2)C2CC2)CC1
    . | -0.4
> COc1ccccc1C(=O)OCC(=O)c1ccc(Cl)cc1
    . | 0.42
> CC(C)n1cnc2cc(NCc3ccccc3O)ccc21
    -0.8 | 15
> O=c1[nH]c2ccccc2c(=O)n1-c1ccccc1
    -0.1 | 5.79
> Cc1ccc(N2C(=O)/C(=C/c3ccc(-c4ccc(Cl)c(Cl)c4)o3)C=C2c2ccccc2)cc1[N+](=O)[O-]
    . | -0.7
> N#CCS(=O)(=O)c1ccccn1
    . | -0.47
> COc1cc(C2C3=C(CCCC3=O)N(c3ccccc3C(F)(F)F)C(=N)/C2=C(/O)c2ccccc2)cc(OC)c1OC (configuration not stated)
    . | -0.585
> O=C1NC(=O)/C(=C\c2cccc(C(F)(F)F)c2)S1
    0.7 | -1.21
> Cn1nc(-c2ccc(Cl)cc2)cc1NC(=O)CC(C)(C)CC(=O)O
    0.15 | 0.83
> Cc1ccc(NC(=O)c2ccc3c(c2)CCO3)cc1
    2.2 | -0.825
> CC(=O)Nc1cc2ccccc2cc1NC(C)=O
    0.05 | 0.71
> CC(=O)c1c(C)oc2ccc(N(C(=O)c3ccccc3)S(=O)(=O)c3ccccc3)cc12
    . | -0.265
> COc1ccc(-c2nn3c(Cc4ccc(Cl)cc4)nnc3s2)cc1OC
    0.3 | 4.61
> Cc1onc(-c2ccccc2Cl)c1C(=O)ONC1=NCCCC1
    1.6 | 0.07
> CC(C)c1ccc(NC(=O)Cn2c(-n3ncc(N4CCOCC4)c(Cl)c3=O)nc3ccccc32)cc1
    0.55 | .
> O=C(NCC(=O)N1CCCc2ccccc21)C1CCCCC1
    0.45 | .
> O=C(Nc1nnc(C2CC2)s1)C1CC1
    -0.5 | -0.925
> CC(=O)Nc1cc2cc(NC(=O)c3c(F)cccc3F)ccc2oc1=O
    -0.7 | 8.5
> Cc1c(C#N)c(Sc2ccccc2NC(=O)c2ccco2)nc2ccccc12
    -0.6 | 0.16
> CCC(C)Oc1c(Cl)cc(C#N)cc1OC (configuration not stated)
    0.7 | 1.34
> CC(C(=O)O)N1C(=O)CSC1=O (configuration not stated)
    0.15 | 0.575
> N#Cc1nc(-c2ccccc2F)oc1NCCCN1CCOCC1
    1.55 | 79.4
> COc1ccc(Br)cc1C1Nc2ccc3ccccc3c2C2=C1C(=O)CC(C)(C)C2 (configuration not stated)
    . | 28.7
> COc1ccc(OC)c(S(=O)(=O)N2CC(C)N(S(=O)(=O)c3cc(OC)ccc3OC)CC2C)c1 (configuration not stated)
    -0.9 | -0.08
> C=CCNc1nc(NCCN2CCOCC2)nc(OC)n1
    1.35 | .
> COc1ccc(CCCOC(=O)NCc2ccc(OC)cc2OC)cc1
    . | 0.18
> COc1ccc2nc3oc(C(=O)N4CCN(c5cccc(C(F)(F)F)c5)CC4)cc3cc2c1
    0.75 | 10.7
> COc1cc(C(=O)N2CCc3ccccc3C2)cc(NC(=O)c2ccco2)c1OC
    -0.75 | .
> COC(=O)C1=C(C(=O)OC)SC(=C2C(=S)C(C)(C)N(C(=O)CCC3CCCCC3)c3ccccc32)S1
    . | 0.34
> CC1CCN(C(=O)COc2ncnc3ccccc23)CC1
    0.9 | .
> CCOc1cccc2c1OC(c1ccc(C(=O)OC)cc1)N1N=C(c3ccc(F)cc3)CC21 (configuration not stated)
    . | -0.65
> CCCCCCNC(=O)c1cc(-c2ccccc2)nc2ccccc12
    . | 1.48
> C[C@]12CCC(=O)C=C1CC[C@@H]1[C@@H]2C(=O)C[C@]2(C)C(=O)CC[C@@H]12
    . | -0.22
> CCO/C=C1\C(=O)N(c2ccccc2)C(=O)c2ccccc21
    -0.3 | 10.3
> Cc1cccc(C(=O)OC2=C(c3ccccc3)C(=O)c3ccccc32)c1
    . | -0.805

# Part of the list above, as comma-separated lines:
mol,AID504770,CapD inh
O=C1NC(=O)/C(=C\c2cccc(C(F)(F)F)c2)S1,0.7,-1.21
O=C1CCCN1c1ccc(OC(F)(F)F)cc1,0.2,-0.185

# More compounds.
# Value order: AID504770 | CapD inh
> O=C1C(C=Nc2ccc(Cl)cc2)=C(O)CC2c3ccccc3CCN12 (configuration not stated)
    . | -0.06
> Cc1ccc(C)c(S(=O)(=O)NCCCn2ccnc2)c1
    -0.45 | -0.245
> NCCCCN=C(N)N
    0.75 | .
> CSc1nnc(-c2nnc(SC)n2-c2ccccc2)n1-c1ccccc1
    -0.5 | -0.115
> CC(C)(CC(=O)O)CC(=O)N1CCN(c2nc(-c3ccccc3)ns2)CC1
    0.25 | 0.68
> CCc1ccc2c(C)nc(NC3=NC(C)(C)C=C(C)N3)nc2c1
    -0.35 | .
> COc1ccc(-c2cc3nc(Cc4ccccc4)cc(=O)n3[nH]2)cc1
    -0.45 | 2.17
